A1 inh: inhibitors of the anti-apoptotic protein A1, read as caspase activation; AID 2462; 330,000 tested, 0.066% active; caspase activation, % (test concentration not listed); MEF A1-2A-BIM cells, Caspase-Glo 3/7 luminescence, 3 h; percent of clofoctol response, vehicle zero;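 active = over half of replicate activation scores above 10%, or exactly half above 10 with the replicate mean above 10; inconclusive = replicate mean below 10 yet half the replicates above 10; inactive = over half of replicates below 10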;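 note: wells of about 30 µL received 50 nL stock; many hits fall short of the cut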
Calb FLC: C. albicans growth modulation with fluconazole; C. albicans CaCi-2 (fluconazole-resistant clinical isolate) + fluconazole, Alamar Blue growth, 48 h; growth inhibition, % (no concentration beside the values); 300,000 tested, 0.57% active; AID 1979;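 active = most replicates above 75%; inconclusive = exactly half above 75%; inactive = most below 75%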;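 note: all wells also contain fluconazole at 8 µg/ml as a sub-toxic cotreatment; 0% = median of DMSO wells and 100% = median of geldanamycin control wells; wells of about 8 µL received 7.5 nL stock; the first replicate is given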
Beta2AR agonist: activates human beta-2 adrenergic receptor causing internalization. Am2.2-beta2AR cells, FAP receptor internalization, flow cytometry; reference of the scale not given here. response, % (test concentration not listed). 340,000 tested, 0.43% active. AID 504454;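 active = response above a set limit, near 3 SD of response in nonfluorescent compounds, cut at about 42% in these data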;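 note: stock transfer was 100 nL into about 11 µL; a reference agonist was the positive control; negative values mostly stem from fluorescent compounds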
T cruzi repl: blocks replication of Trypanosoma cruzi; T. cruzi beta-gal in NIH3T3, luminescence, 90 h; inhibition, % (no concentration beside the values); 300,000 tested, 1.4% active; AID 1885;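 active = mean inhibition across valid replicates above about 55%, limit read from the data; inconclusive = mean below that limit but half or more replicates reach it; inactive = mean below it, under half of replicates reach it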;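 note: signal also drops with host cell toxicity which is not excluded here; 0% = plate median of DMSO wells and 100% = zero luminescence signal; higher percent means less beta-gal luminescence so fewer parasites; stock transfer was 50 nL into about 50 µL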
ALR inh: human ALR oxidase inhibition via reduced H2O2. purified ALR, DTT oxidation, H2O2 HRP-luminol luminescence. inhibition, % (test concentration not listed). 290,000 tested, 3.8% active;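 active = mean and each replicate at 75% or more; inconclusive = only one of the two met; inactive = neither met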;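 note: stock transfer was 7.5 nL into about 7.5 µL; 0% = neutral wells and 100% = wells with inactivated enzyme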
Beta apoptosis: beta cell apoptosis inhibition | 300,000 tested, 0.8% active | AID 435005 | protection from apoptosis, % (concentration not given with the values) | INS-1E cytokine-induced death, ATP luminescence, 48 h; percent of positive-control rescue, neutral wells zero;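 active = all replicates at 75% or more, or half of them and the mean; inconclusive = half reach 75% but not the mean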;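 note: 0% = cytokine-treated negative control wells and 100% = positive control rescue; higher means more ATP so stronger rescue from cytokine killing; wells of about 40 µL received 100 nL stock; the first replicate is given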
rRNA inh HTS: selective bacterial rRNA inhibition in E. coli; E. coli WT GFP vs humanized-ribosome RFP mutants, fluorescence, 24 h; stronger effect = lower value; DMSO median 0, no signal -100; GFP signal change (wild-type ribosome), % (concentration not given with the values); 350,000 tested, 1.6% active; AID 720706;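 active = significant combined selectivity score with lowered wild-type GFP, culture density cut under 30%, mutant RFP and density less affected; inactive = any of these conditions unmet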; note: one replicate is shown; some compounds called inactive have numbers as strong as hits
LANA-H2A inh: blocks KSHV LANA binding to histone H2A/H2B; Q9QR71; cell-free LANA-H2A/H2B peptide, fluorescence polarization; inhibition, % (concentration not given with the values); 320,000 tested, 0.6% active; in the data active = inhibition mostly above about 10%, no sharp cut-off; inactive = mostly below about 6.7%;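 note: stock transfer was 7.5 nL into about 10 µL; 0% = median of vehicle wells and 100% = median of positive control wells; one replicate is shown; the record names a cut of 25% in any replicate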
Target sequence (Q9QR71 whole entry, looked up): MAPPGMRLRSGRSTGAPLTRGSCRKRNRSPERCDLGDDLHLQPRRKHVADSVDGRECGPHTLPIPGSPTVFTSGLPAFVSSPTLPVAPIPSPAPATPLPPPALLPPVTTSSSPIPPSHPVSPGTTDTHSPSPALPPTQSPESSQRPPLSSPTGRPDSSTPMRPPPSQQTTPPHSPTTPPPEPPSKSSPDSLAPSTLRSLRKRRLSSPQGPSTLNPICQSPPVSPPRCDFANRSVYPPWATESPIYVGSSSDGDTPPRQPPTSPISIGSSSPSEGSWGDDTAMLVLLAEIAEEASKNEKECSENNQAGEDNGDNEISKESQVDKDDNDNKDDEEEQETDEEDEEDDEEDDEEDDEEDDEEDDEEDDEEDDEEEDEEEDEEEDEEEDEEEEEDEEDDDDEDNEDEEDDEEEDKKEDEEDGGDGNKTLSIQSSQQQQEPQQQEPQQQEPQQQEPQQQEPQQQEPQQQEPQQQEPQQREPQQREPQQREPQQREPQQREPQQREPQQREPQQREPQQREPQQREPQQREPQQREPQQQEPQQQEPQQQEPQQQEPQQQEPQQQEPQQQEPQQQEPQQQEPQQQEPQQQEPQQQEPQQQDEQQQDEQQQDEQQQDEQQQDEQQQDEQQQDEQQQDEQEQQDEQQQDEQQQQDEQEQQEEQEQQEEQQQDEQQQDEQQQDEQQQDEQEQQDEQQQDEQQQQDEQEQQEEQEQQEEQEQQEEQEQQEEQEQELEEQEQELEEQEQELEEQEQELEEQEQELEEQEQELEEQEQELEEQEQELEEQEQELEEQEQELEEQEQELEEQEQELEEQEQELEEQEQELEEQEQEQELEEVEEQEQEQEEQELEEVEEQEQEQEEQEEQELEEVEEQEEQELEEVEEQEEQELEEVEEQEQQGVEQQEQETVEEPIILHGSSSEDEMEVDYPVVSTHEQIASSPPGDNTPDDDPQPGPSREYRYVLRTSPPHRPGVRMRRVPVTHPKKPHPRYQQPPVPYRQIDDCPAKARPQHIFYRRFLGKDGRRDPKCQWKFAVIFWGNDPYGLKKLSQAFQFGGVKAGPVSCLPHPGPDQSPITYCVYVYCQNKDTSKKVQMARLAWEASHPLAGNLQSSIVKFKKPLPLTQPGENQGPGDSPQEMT
rRNA inh HTS OD600: recorded beside rRNA inh HTS, whose call it bears; OD600 change, %; measured here: OD600 growth;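 optical density of the mix in the first replicate; 0 = DMSO median and -100 = no signal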
rRNA inh HTS RFP: also measured in rRNA inh HTS; calls as there; RFP signal change, %; measured here: RFP humanized mutant strains;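 first replicate; 0 = DMSO median and -100 = no signal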
Active calls of the source: *; ? = inconclusive; . = no result given. A portion of the library (hit frequency here may not be typical).

SMILES	A1 inh	Calb FLC	Beta2AR agonist	T cruzi repl	ALR inh	Beta apoptosis	rRNA inh HTS	rRNA inh HTS OD600	rRNA inh HTS RFP	LANA-H2A inh
Cc1cccc(Oc2ncnc3onc(C)c23)c1	0.5	0	-5	-8	-19	1	.	.	.	0.8
CC1(C)C2CC[C@]3(C)C(CC=C4[C@@H]5C[C@](C)(CO)CC[C@]5(C(=O)O)CC[C@]43C)[C@@]2(C)CC[C@@H]1O (some centres undefined)	-0.7	-9	.	1	-7	3	.	.	.	-4.5
COc1ccc(N2CC(NC(=O)c3ccc4ccccc4c3)CC2=O)cc1OC (centres undefined)	0.3	-3	9	-3	-2	16	-6	-4	-2.2	0.5
CC(=O)C(N=Nc1ccccc1)(Sc1nnc(-c2ccccc2)n1-c1ccccc1)C(=O)Nc1ccccc1 (centres undefined)	-0.3	-7	3	45	10	3	.	.	.	-5.0
OC(COc1ccc2cc(Br)ccc2c1)Cn1ccnc1 (centres undefined)	0.3	27	2	58*	-17	9	-54	-76	-24	-4.3
COc1cc(C2CC(c3ccccc3)=NN2c2ccccc2)ccc1OCC(=O)O (centres undefined)	0.6	-5	-7	-17	99*	1	-3	-5	6.1	5.2
COc1ccc(C(=O)N/C(=C\c2ccccc2)C(=O)NC(CCSC)C(=O)O)cc1 (centres undefined)	0.7	1	-13	-30	-13	-8	.	.	.	-2.2
COc1ccccc1N1CCN(C2CCCN(Cc3c(F)cccc3F)C2)CC1 (centres undefined)	0.1	-7	0	11	22	0	4	-5	-2.9	2.5
CC(C)CCn1c(N2CCN(c3cccc(Cl)c3)CC2)nc2c1c(=O)[nH]c(=O)n2C	-0.6	-5	27	40	26	19	.	.	.	-3.3
Oc1c(Br)cccc1/C=N/Nc1c(F)c(F)c(F)c(F)c1F	-0.5	20	9	3	-2	6	.	.	.	2.2
CCOC(=O)CNC(=O)C1c2ccccc2Oc2ccccc21	1.0	-40	3	-3	-15	-5	15	15	0.2	3.3
O=C1C(O)=C(O)C(=O)c2ccccc21	1.1	.	97*	.	42	6	.	.	.	13
CCOC(=O)Nc1ccc(S(=O)(=O)Nc2cc(C)on2)cc1	0.5	-3	-1	-25	-3	-6	.	.	.	-2.2
Cc1sc2nc(SCC(=O)NCc3cccs3)[nH]c(=O)c2c1C	-0.2	?	5	0	.	1	.	.	.	-0.2
COc1ccccc1NC(=O)c1cc(S(=O)(=O)N2CCc3ccccc32)ccc1F	-0.1	3	-1	4	-9	-4	14	12	1.7	2.8
CNC(=O)OCc1cccc(COC(=O)NC)n1	-0.3	-21	2	-8	0	-1	.	.	.	-2.9
NC(=O)NC(=O)C(Nc1ccc(N2CCCCC2)cc1)c1ccccc1 (centres undefined)	0.2	-3	17	22	99*	7	-9	4	12	-3.4
O=C(CS(=O)(=O)Cc1ccccc1)NCc1ccccc1Cl	0.2	-6	5	-8	-2	2	12	8	0.0	3.5
CCN(CC(=O)Nc1c(F)cccc1F)C(=O)CNC(=O)c1ccc2ccccc2c1	0.5	.	-2	.	-5	-6	.	.	.	-0.9
Cc1ccc(-c2cc(C(=O)Nc3ccc(S(=O)(=O)N4CC(C)OC(C)C4)cc3)[nH]n2)c(O)c1 (centres undefined)	0.5	6	14	7	5	0	-10	3	0.1	0.5
Cc1nnc(N2C(=O)C(O)=C(C(=O)c3ccco3)C2c2ccc(C(C)(C)C)cc2)s1 (centres undefined)	1.1	-7	-3	-8	97*	-4	.	.	.	8.7
COc1ccc(CCN2C(=O)CSC2=Nc2ccc(C(C)C)cc2)cc1OC	-0.1	7	10	18	.	32	-3	4	4.0	-2.3
Fc1cccc(CN2CCC(Cc3ccccc3)CC2)c1	-0.3	1	-1	-8	0	1	14	3	0.0	0.6
COc1cccc(N2CCN(c3nc(-c4ccccc4C)cc(=O)[nH]3)CC2)c1	1.6	4	-7	-51	4	.	-18	-15	-2.3	2.5

Next section (six carried over from the part before).
SMILES	A1 inh	Calb FLC	Beta2AR agonist	T cruzi repl	ALR inh	Beta apoptosis	rRNA inh HTS	rRNA inh HTS OD600	rRNA inh HTS RFP	LANA-H2A inh
CCN(CC(=O)Nc1c(F)cccc1F)C(=O)CNC(=O)c1ccc2ccccc2c1	0.5	.	-2	.	-5	-6	.	.	.	-0.9
Cc1ccc(-c2cc(C(=O)Nc3ccc(S(=O)(=O)N4CC(C)OC(C)C4)cc3)[nH]n2)c(O)c1 (centres undefined)	0.5	6	14	7	5	0	-10	3	0.1	0.5
Cc1nnc(N2C(=O)C(O)=C(C(=O)c3ccco3)C2c2ccc(C(C)(C)C)cc2)s1 (centres undefined)	1.1	-7	-3	-8	97*	-4	.	.	.	8.7
COc1ccc(CCN2C(=O)CSC2=Nc2ccc(C(C)C)cc2)cc1OC	-0.1	7	10	18	.	32	-3	4	4.0	-2.3
Fc1cccc(CN2CCC(Cc3ccccc3)CC2)c1	-0.3	1	-1	-8	0	1	14	3	0.0	0.6
COc1cccc(N2CCN(c3nc(-c4ccccc4C)cc(=O)[nH]3)CC2)c1	1.6	4	-7	-51	4	.	-18	-15	-2.3	2.5
Cc1onc(-c2ccccc2)c1NC(=O)N(Cc1ccccc1)C(C)C	-0.1	3	4	6	.	-5	.	.	.	3.5
CC(C)Cc1nn2c(N)c(/C=C3\C=Nc4ccccc43)c(=O)nc2s1	-0.7	-4	7	1	-2	-7	1	-24	5.0	3.4
O=C(COC(=O)c1ccc(Cl)c(S(=O)(=O)N2CCCC2)c1)NC1CCCC1	-0.7	8	0	-11	-1	-4	.	.	.	-4.0
O=C(Cn1cnc2ccccc2c1=O)NCCC(=O)Nc1ccc(F)cc1	1.1	-4	-9	-14	-16	.	.	.	.	-2.0
CCC(C)(C)NC(=O)C(c1ccc(OC)cc1)N(C(=O)CCC(=O)Nc1cc(C)on1)c1ccc(OC)cc1OC (centres undefined)	0.5	11	-1	1	.	7	1	-11	-2.2	-0.8
Cc1ccc(S(=O)(=O)N2CCC(C(=O)N3CCN(Cc4ccccc4)CC3)CC2)cc1	0.6	.	4	.	-5	0	-1	-1	-0.5	1.2
Cc1cc(C)nc(Nc2cc([N+](=O)[O-])ccc2C)n1	1.2	7	11	6	.	3	-5	6	-1.4	2.7
NNC(=O)C1c2ccccc2Oc2ccccc21	0.0	4	0	-6	-6	-7	6	14	1.6	-2.7
Cc1ccc(NC(=S)N2CCC(NC(=O)c3ccc(F)cc3)CC2)cc1C	-0.7	-5	-2	-22	.	2	1	-5	-1.7	3.3
COC(=O)c1ccccc1S(=O)(=O)Nc1ccc(OC)nc1	-0.2	-5	4	-11	2	-11	.	.	.	-0.5
Cc1ccc(NC(=O)C(=O)NCCCN2CCCC2=O)cc1	-0.5	-3	2	2	2	.	-1	2	-2.1	-5.8
CCN(CC(=O)Nc1cccc(C(C)=O)c1)S(=O)(=O)c1ccc(C)cc1	0.0	-15	-18	-16	-5	7	-9	-9	2.3	-6.4
COc1ccc(NC(=O)CC#N)cc1OC	-0.2	2	-6	7	50	-3	.	.	.	-6.0
COc1ccccc1N1CCN(/N=C\C(Br)=C\c2ccccc2)CC1	0.3	-13	2	-17	6	-12	-8	-10	0.5	-2.5
NC(=O)c1cccc(NC(=O)Nc2ccc(Cl)cc2)c1	0.2	-5	-3	-8	0	4	15	9	2.5	3.2
Cc1cc(C)cc(NC2=NC3(CCCCC3)N=C(N)N2)c1	0.1	8	-11	1	-9	-1	.	.	.	4.0
CC1(C)C(=O)OC(C(=O)c2ccccc2)C2(CCCCC2)C1=O (centres undefined)	-0.8	10	1	-9	.	-2	.	.	.	0.0
Cc1ccc([N+](=O)[O-])cc1NC(=S)NC(=O)c1c(Cl)cnn1C	.	-11	2	2	.	.	4	6	-1.2	.
O=C(CCn1c2c(c3ccccc31)CCCC2)NNC(=O)c1ccc([N+](=O)[O-])cc1	-0.3	28	-6	21	-7	-1	.	.	.	2.8
COc1ccc(CN(Cc2ccccn2)S(=O)(=O)c2ccc(-n3cnnn3)cc2)cc1	-0.2	-2	-6	5	-2	0	.	.	.	2.7
COc1ccccc1CN1C[C@@H]2C[C@@H](c3ccc4nsnc4c3)N3CCC[C@@]23C1=O	0.2	-4	-9	26	.	-3	-11	-9	5.0	-0.8
CC1CCN(C(=S)c2cn(Cc3ccccc3F)c3ccccc23)CC1	0.2	4	-1	25	-3	30	.	.	.	0.5
CCc1ccc(CN2CCC(CO)(CC3CCCCO3)CC2)o1 (centres undefined)	-0.2	-15	0	-2	0	-10	14	-4	4.3	-2.7
CN(C)/C=C/C(=O)c1ccc(Cl)cc1	-0.6	-31	-1	-29	-2	0	.	.	.	-0.9
Cc1ccc(S(=O)(=O)c2cc3ccccc3oc2=Nc2ccc3c(c2)OCO3)cc1	0.9	-5	-5	7	-2	8	.	.	.	5.1
CN1CCN(C(=O)C2=C[C@@H](c3csc4ccccc34)C[C@@H](OCCCCO)O2)CC1	-0.8	-15	-6	-10	-13	-2	5	-1	4.4	0.7
COc1cc(/C=C(\NC(=O)c2cc(OC)c(OC)c(OC)c2)C(=O)NC(C(=O)O)c2ccccc2)cc(OC)c1OC (centres undefined)	-1.5	-4	7	-8	-1	-2	12	8	-1.4	-0.4
O=C(Nc1cc(F)ccc1F)C1CCCN1S(=O)(=O)c1cccc2nsnc12 (centres undefined)	1.8	-2	1	8	-1	0	2	-2	-2.2	0.8
CC(=O)c1ccc(Oc2cc(C)nc(N3CCOCC3)n2)cc1	-0.7	2	-6	3	-4	0	.	.	.	4.3
O=C(Nc1cccnc1)c1c(F)c(F)c(F)c(F)c1F	0.5	-1	3	-18	-11	4	.	.	.	-1.4
O=C1/C(=C/c2ccc(Cl)cc2)SC(=S)N1CCC(=O)N1CCCCC1CCO (centres undefined)	-0.4	-2	2	-6	-7	-26	7	3	9.0	1.1
COc1cc(C2C(C#N)=C(N)Oc3cc(N(C)C)ccc32)cc2c1OCO2 (centres undefined)	0.3	2	9	1	7	69	.	.	.	-4.9
CC(C)CCn1c(=O)[nH]c2ccccc21	0.7	0	3	-10	3	-2	-1	-3	3.0	-2.6
O=C(COc1ccc2ccccc2c1)Nc1ccc2c3c(cccc13)CC2	0.3	5	10	-47	-8	0	22	13	5.5	-3.0
O=C(NC12CC3CC(CC(C3)C1)C2)c1ccc(S(=O)(=O)N2CCOCC2)cc1	1.1	-28	0	-23	-2	.	.	.	.	2.5
CCOC(=O)COn1c(=O)c(=O)n(O)c2ccccc21	-0.7	1	5	-8	100*	5	.	.	.	7.4
COc1ccc(CCN(/C=C2\Sc3ccccc3C2=O)C(C)=O)cc1OC	0.5	11	-2	-17	32	-8	.	.	.	-2.1

Screening data from PubChem.
